Assay outcomes as filed in PubChem.
Six1-Eya2 inh – blocks human Six1 binding to Eya2. Q15475+O00167. AlphaScreen GST-Six1/His-Eya2 binding, biochemical; hits give low values; control for the full effect not named in the record. activity change, % (concentration not given with the values). 360,000 tested, 0.56% active; in the data active = activity change below about -65%; inconclusive = about -30% to -65%; inactive = above about -30%; also: % is scaled to controls: 0 for no effect and ±100 for the full control effect
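Compounds are tested against tagged Six1 and Eya2 proteins bridged by glutathione donor and nickel acceptor beads; after a one-hour incubation at 37 °C without light, AlphaScreen emission is recorded.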
CtBP-E1A blk – CtBP/E1A binding inhibition. activity change, % (concentration not given with the values). 340,000 tested, 0.49% active. AID 651724. AlphaScreen GST-E1A/His-CtBP binding, 1536-well; hits give low values; control for the full effect not named in the record; in the data active means activity change below about -65%; inconclusive means about -30% to -65%; inactive means above about -30%; also: % is scaled to controls: 0 for no effect and ±100 for the full control effect
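Homogeneous bead-based format: GST-tagged E1A captured on glutathione donor beads, His-tagged CtBP on nickel acceptor beads; compounds precede bead addition by 2 h at 37 °C.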
TRPV1 potentiator – enhances activation of the human vanilloid receptor TRPV1; AID 540277; TRPV1-expressing cells, Fluo-8 calcium influx, capsaicin EC20 potentiation; host cell line not named in the record; control for the full effect not named in the record; 320,000 tested, 0.02% active; potentiation, % at 8.33 µM; active means potentiation above 80%; inconclusive means 30% to 80%; inactive means below 30%; also: 0% is about no effect
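Fluo-8 calcium influx in TRPV1-expressing cells, kinetic read (ex 480/em 520 nm). Compound added and read 3 min for agonist activity, followed by capsaicin at EC20 final and 2 min further read for enhancement.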
TRPML1 blocker – inhibitors of human TRPML1 channel; TRPML1-inducible cells, Ca2+ dye fluorescence, FDSS; hits give low values; inhibition of EC80 agonist-evoked calcium signal; 390,000 tested, 0.02% active; activity change, negative = inhibition, % (no concentration beside the values); AID 624415; Q9GZU1; in the data active means activity change below about -50%; inconclusive means about -30% to -50%; inactive means above about -30%;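 also: stimulus is agonist 54-4 at its EC80 concentration; % is scaled to controls: 0 for no effect and ±100 for the full control effect; compound concentration not given in the record; the text of the record puts the active cut at -80%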
Target sequence (Q9GZU1 whole entry, looked up): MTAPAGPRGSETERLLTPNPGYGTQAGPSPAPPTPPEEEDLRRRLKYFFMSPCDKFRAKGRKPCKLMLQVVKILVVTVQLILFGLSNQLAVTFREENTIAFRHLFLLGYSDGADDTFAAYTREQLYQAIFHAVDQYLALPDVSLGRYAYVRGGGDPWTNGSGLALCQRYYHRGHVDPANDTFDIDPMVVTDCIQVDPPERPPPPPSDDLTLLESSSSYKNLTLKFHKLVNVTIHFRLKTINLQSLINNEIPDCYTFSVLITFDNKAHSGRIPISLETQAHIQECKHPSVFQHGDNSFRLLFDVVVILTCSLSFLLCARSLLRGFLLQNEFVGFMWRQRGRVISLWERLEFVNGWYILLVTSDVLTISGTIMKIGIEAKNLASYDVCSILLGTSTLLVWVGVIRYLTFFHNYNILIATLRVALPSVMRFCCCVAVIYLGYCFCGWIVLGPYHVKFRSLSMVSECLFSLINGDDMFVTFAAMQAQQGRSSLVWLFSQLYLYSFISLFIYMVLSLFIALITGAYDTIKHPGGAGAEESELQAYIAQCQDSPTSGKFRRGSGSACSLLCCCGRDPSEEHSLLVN
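TRPML1-DL cells, Tet-induced overnight (~16 h, 37 °C) at 1,500 cells/well, were loaded with Ca8 no-wash dye plus quencher for 45-90 min at room temperature. Compounds were pinned during FDSS kinetic reading; agonist 54-4 at EC80 (4 uM final) then added.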
TRPML1 ag – activates the human TRPML1 channel; Q9GZU1; TRPML1-expressing cells, Ca2+ dye fluorescence, FDSS; host cell line not named in the record; reference of the full effect not given here; activation, % (no concentration beside the values); 410,000 tested, 0.12% active; AID 624414; in the data active = activation above about 50%; inconclusive = about 30% to 50%; inactive = below about 30%; also: 0% is about no effect; the text of the record puts the active cut at 80%
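Kinetic FDSS Ca2+ read in Tet-induced TRPML1-DL cells (ABD Ca8 dye plus quencher, 45-90 min RT loading): baseline, then compound, then 110 s agonist window; EC80 agonist 54-4 at 4uM final added afterwards for a 110 s antagonist window.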
D2 potentiator – potentiates the human D2 dopamine receptor allosterically; P14416; DiscoveRx D2 beta-arrestin cells, luminescence, 90 min; 100% = 57 uM dopamine signal; potentiation, % (concentration not given with the values); 360,000 tested, 0.23% active; active = potentiation of 50% or more; inconclusive = 30% to 50%; inactive = 30% or less;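 also: compound concentration not given in the record; tested on top of an EC20 dose of dopamine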
Target sequence (P14416 whole entry, looked up): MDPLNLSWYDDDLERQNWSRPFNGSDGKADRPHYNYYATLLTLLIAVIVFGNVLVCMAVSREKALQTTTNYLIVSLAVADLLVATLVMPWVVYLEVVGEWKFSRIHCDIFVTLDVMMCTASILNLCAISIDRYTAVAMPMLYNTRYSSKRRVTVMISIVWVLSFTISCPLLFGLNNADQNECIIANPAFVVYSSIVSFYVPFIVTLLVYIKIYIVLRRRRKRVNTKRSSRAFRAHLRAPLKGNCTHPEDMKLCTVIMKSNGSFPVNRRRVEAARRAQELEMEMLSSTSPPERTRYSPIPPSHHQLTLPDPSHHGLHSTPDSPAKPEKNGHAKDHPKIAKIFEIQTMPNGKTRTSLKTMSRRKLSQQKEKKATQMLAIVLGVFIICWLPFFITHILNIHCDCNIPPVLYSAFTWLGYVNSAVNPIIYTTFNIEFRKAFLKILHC
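PathHunter beta-arrestin assay in DiscoveRx D2 cells. Compounds were added with an EC20 of dopamine (50 nM final) for 90 min at 37 deg C. Luminescence was read 1 h after detection reagent, with 57 uM dopamine as the EC100 control.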
Numbers without * were called inactive; ? = inconclusive; · = not tested or not shown.

mol	Six1-Eya2 inh	CtBP-E1A blk	TRPV1 potentiator	TRPML1 blocker	TRPML1 ag	D2 potentiator
CCc1cccc(OCC(=O)Nc2ccc(C)c(S(=O)(=O)N3CCCCCC3)c2)c1	1	10	-6	37	3.5	1
CC(C)(C)c1ccc(C(=O)N/N=C2\C3CN4CCN(C3)CC2(c2ccccc2)C4)cc1	12	0	1	10	-0.3	-13
COc1ccccc1-c1nnc(NC(=O)c2ccccc2F)o1	-20	0	-1	-5	-0.7	2
COc1cc(Cl)c(C)cc1NC(=O)c1ccc(NS(=O)(=O)c2ccc(F)c(F)c2)cc1	-1	-10	-22	-1	4.0	-8
CC(C)(C)c1ccc(OCCC(=O)Nc2cccc(S(=O)(=O)NC3=NCCCCC3)c2)cc1	-10	2	11	2	2.1	-11
Clc1ccc(Sc2cc(Cl)c(-c3ccccc3)nn2)cc1	21	7	16	66	2.1	-2
Fc1ccc(-c2nc3c(Cl)cc(C(F)(F)F)cn3c2Cc2ccccc2)cc1	-7	1	·	-13	-0.2	2
Cc1cc(NC(=O)Cc2ccccc2C)no1	-5	6	3	4	0.0	-4
O=C1C2C3C=CC(C3)C2C(=O)N1CCN1CCN(S(=O)(=O)/C=C/c2ccccc2)CC1 (centres undefined)	2	1	-5	19	-0.6	-1
CCCCNc1cc(C)oc(=O)c1C(C)=O	1	-1	16	-8	2.9	-10

Next results:
mol	Six1-Eya2 inh	CtBP-E1A blk	TRPV1 potentiator	TRPML1 blocker	TRPML1 ag	D2 potentiator
C[C@@H]1CN([C@H](C)CO)C(=O)c2cccc(NC(=O)Nc3ccc(F)cc3)c2O[C@H]1CN(C)C(=O)Nc1ccc(C(F)(F)F)cc1	-1	3	·	-6	-0.5	13
CCN(CC)c1ccc(N=C2C(=O)Nc3ccccc32)cc1	-28	?	-1	-23	0.6	-24
CSc1ncccc1C(=O)N1CCN(S(=O)(=O)c2ccccc2)CC1	7	17	13	-3	-0.5	-9
O=C(NC1CC2CCCC(C1)N2Cc1ccccc1)c1cccc(F)c1 (centres undefined)	10	·	11	·	·	-80
CCOC(=O)COc1ccc2c(c1)c(C(C)=O)c(C)n2-c1ccc(OC)cc1	-1	12	-22	-8	0.2	-6
CCOc1ccc(S(=O)(=O)NCc2ccccc2)cc1C(N)=O	5	-10	18	-10	-0.6	1
COc1ccc(N2CCN(C(=O)CSc3ncn[nH]3)CC2)cc1	-5	3	6	-1	0.3	5
COc1ccccc1C(CNC(=O)c1ccc(NS(=O)(=O)c2ccc(C(C)=O)cc2)cc1)N1CCCC1 (centres undefined)	-8	11	·	-24	0.2	-1
O=C(N/N=C/c1ccc(O)c(O)c1)c1ccc(-n2cnnn2)cc1	-18	·	-15	6	-0.9	19
Cc1cc(C)c(Cn2c(=O)n(CCCC(=O)NCc3ccco3)c(=O)c3ccccc32)c(C)c1	-4	-5	·	-7	1.7	-18

New compounds follow.
mol	Six1-Eya2 inh	CtBP-E1A blk	TRPV1 potentiator	TRPML1 blocker	TRPML1 ag	D2 potentiator
C[N+]1([O-])[C@@H]2Cc3cc4c(cc3[C@@H]1Cc1cc3c(cc12)OCO3)OCO4 (some centres undefined)	6	3	30	35	0.6	-3
O=C(/C=C/c1cccc(Br)c1)N1CCN(c2cccc(C(F)(F)F)c2)CC1	1	1	-10	4	2.3	14
O=C(c1cc2ccccc2oc1=O)N1CCCC1	3	0	-1	-14	0.3	-5
Cc1ccccc1CC(=O)OCC(=O)Nc1ccc(C)c(S(=O)(=O)N2CCCCC2)c1	-4	-1	10	0	1.1	-1
COc1ccc(C(=O)c2oc3ccccc3c2N)cc1	4	13	·	6	1.1	-2
CCCCc1nc(C(N)=O)c2[nH]c(=O)n(-c3ccc(OCC)cc3)c2n1	0	·	11	7	1.5	5
CN1CCN(NC(=O)c2ccccc2F)CC1	5	4	-3	-8	-0.6	-2
CCC1CCCCN1C(=S)NC(=O)c1ccco1 (centres undefined)	0	7	·	0	-0.4	1
CC1CCN(S(=O)(=O)c2ccc(C(=O)NCc3ccc4c(c3)OCO4)cc2)CC1	1	-5	14	17	1.3	2
CCOc1ccc(C(=O)NC(=S)N(Cc2ccccc2)Cc2ccccc2)cc1	-10	-8	-3	-9	0.8	-25

The list goes on:
mol	Six1-Eya2 inh	CtBP-E1A blk	TRPV1 potentiator	TRPML1 blocker	TRPML1 ag	D2 potentiator
CNCCCC1c2ccccc2C=Cc2ccccc21	0	-13	8	9	1.2	-27
COc1ccc(C(=O)Oc2ccc(/C=N/Nc3ccc(Cl)c(C(=O)O)c3)cc2OC)cc1	-8	-13	12	-24	2.0	-12
COc1cccc(NC(=O)c2cccnc2)c1	3	2	2	-3	-0.9	7
CCC(C)NC(=O)c1ccc(CS(=O)(=O)Cc2ccc(Cl)cc2)o1 (centres undefined)	27	45	-17	22	0.3	-9
NC(=O)c1ccc[n+](Cc2ccccc2)c1	1	2	-3	11	0.6	-2
Cc1onc(-c2ccccc2Cl)c1C(=O)OCC(=O)N1CCN(c2ccccc2)CC1	-14	16	-2	4	-0.6	-5
O=C(Nc1ccc(C(=O)NCCCN2CCCCC2)cc1)C1=CSCCO1	4	·	-3	28	0.9	-10
CN(C(=O)c1ccco1)c1nc2c(s1)CCCC2	-3	-5	-4	-8	-0.1	-2
COc1cc(Cl)c(C)cc1NC(=O)CN1C(=O)C2CCCCC2C1=O (centres undefined)	2	14	3	0	0.0	-9
Cc1nc(NCc2ccc3c(c2)OCO3)c2nnn(Cc3ccccc3)c2n1	6	4	18	-6	1.7	-10

Exported with each value named: 4 of the compounds above.
> CCC(C)NC(=O)c1ccc(CS(=O)(=O)Cc2ccc(Cl)cc2)o1 (centres undefined)
  Six1-Eya2 inh: 27 | CtBP-E1A blk: 45 | TRPV1 potentiator: -17 | TRPML1 blocker: 22 | TRPML1 ag: 0.3 | D2 potentiator: -9

> Cc1onc(-c2ccccc2Cl)c1C(=O)OCC(=O)N1CCN(c2ccccc2)CC1
  Six1-Eya2 inh: -14 | CtBP-E1A blk: 16 | TRPV1 potentiator: -2 | TRPML1 blocker: 4 | TRPML1 ag: -0.6 | D2 potentiator: -5

> COc1cc(Cl)c(C)cc1NC(=O)CN1C(=O)C2CCCCC2C1=O (centres undefined)
  Six1-Eya2 inh: 2 | CtBP-E1A blk: 14 | TRPV1 potentiator: 3 | TRPML1 blocker: 0 | TRPML1 ag: 0.0 | D2 potentiator: -9

> Cc1nc(NCc2ccc3c(c2)OCO3)c2nnn(Cc3ccccc3)c2n1
  Six1-Eya2 inh: 6 | CtBP-E1A blk: 4 | TRPV1 potentiator: 18 | TRPML1 blocker: -6 | TRPML1 ag: 1.7 | D2 potentiator: -10

More compounds.
mol	Six1-Eya2 inh	CtBP-E1A blk	TRPV1 potentiator	TRPML1 blocker	TRPML1 ag	D2 potentiator
COc1ccc([N+](=O)[O-])cc1NC(=O)C1CCCN1S(=O)(=O)c1cccs1 (centres undefined)	0	-9	-14	40	0.4	6
NC(=O)C1CCN(Cc2ccc(OCc3ccccc3)cc2)CC1	-15	-2	-7	-3	1.3	-6
Cc1ccc(Cn2c(SC(C)C(N)=O)nc3ccccc3c2=O)cc1 (centres undefined)	-1	5	-7	23	-0.4	0
COC(=O)c1ccccc1OCc1cc(=O)oc2ccc(C)cc12	5	9	·	·	-0.5	-1
COC(=O)[C@H](Cc1ccccc1)NC(=O)CC[C@H]1O[C@@H](n2ccc(=O)[nH]c2=O)[C@H](O)[C@@H]1O	1	10	·	-8	-0.2	0
CCOC(=O)N1CCN(C(=O)C2CCN(S(=O)(=O)c3ccc(Br)s3)CC2)CC1	8	4	4	7	-0.7	-13
COc1ccc(CCn2c(C)cc(C(=O)CN3C(=O)C(=O)N(C4CCCC4)C3=O)c2C)cc1OC	-13	-7	9	-10	0.0	1
O=C(NC1CC1)C1=C[C@@H](c2ccc(Br)cc2)C[C@@H](OCc2ccc(CO)cc2)O1	0	2	?	11	0.0	-7
CN(C)S(=O)(=O)Oc1ccc(Cl)cc1C(=O)Nc1cccc(C(F)(F)F)c1	11	13	-4	6	1.0	0
CC(/C=N\N1CCN(c2ccc(Cl)cc2)CC1)=C\c1ccccc1	5	-1	10	7	0.0	-9

The listing continues.
mol	Six1-Eya2 inh	CtBP-E1A blk	TRPV1 potentiator	TRPML1 blocker	TRPML1 ag	D2 potentiator
COc1cccc(-c2c(C#N)c(SC)nc3cc(C)nn23)c1	-5	1	21	55	-0.8	-4
O=C(COC(=O)c1ccc([N+](=O)[O-])s1)NC(=O)NCc1ccccc1	-3	-12	8	0	0.9	15
COC(=O)c1sc(N)c(C(=O)OC)c1CSc1nnnn1C	11	12	?	-26	0.2	4
COC(=O)c1cn(Nc2ncc(C(F)(F)F)cc2Cl)c(=O)c2ccccc12	-3	20	13	3	-0.7	28
C=CCn1c(SCC(=O)NC2CCCC2)nnc1-c1cccnc1	1	2	0	-24	0.7	-14
O=C(Nc1ccc(Cl)c(Cl)c1)Nc1ccccc1O	3	·	-24	-13	-0.3	-15
COC(=O)c1cccc(CSc2nnc(C)s2)c1	-5	2	-1	-4	-0.7	-4
O=C(/C=C/c1ccc(F)cc1)N1CCN(c2ncccn2)CC1	4	·	-10	-10	-0.2	-7
CC(=O)N1CCn2c3c(c(=O)c4cc(C)ccc42)CCC31 (centres undefined)	-12	-6	4	36	0.2	-16
COc1ccccc1C(=O)Nc1ccnn1C1CCN(C2CCSCC2)CC1	3	4	-4	-11	-0.4	-17

(list continues)
mol	Six1-Eya2 inh	CtBP-E1A blk	TRPV1 potentiator	TRPML1 blocker	TRPML1 ag	D2 potentiator
COc1cc(S(=O)(=O)n2ccc(C)n2)c(C)cc1C	4	-4	·	-17	1.4	-6
C=C(C)C1CC=C(C)/C(=N/NC(=O)c2cccs2)C1 (centres undefined)	-4	-4	8	7	1.3	1
CCOC(=O)NC(NS(=O)(=O)c1ccccc1)(C(=O)OCC)C(F)(F)F (centres undefined)	10	26	29	-25	0.1	-5
O=C(C1CC(=O)N(C2CCCCC2)C1)N1CCN(c2ccccc2)CC1 (centres undefined)	3	-10	-4	-14	-0.1	-1
CCOc1ccc(C(=O)N/N=C/c2ccc(-c3ccc(S(=O)(=O)Nc4ncccn4)cc3)o2)cc1	?	?	4	17	0.0	-4
Cc1nc2ccc(S(=O)(=O)N(C)CC(=O)NCc3ccc(N(C)C)cc3)cc2s1	-10	-9	-2	0	-0.3	-1
Cc1nc(SCN2C(=O)c3ccccc3C2=O)n[nH]1	-1	5	-30	-8	0.0	-3
CCCc1cc(=O)c2c(O)ccc(OC)c2o1	-4	-2	-18	-19	-0.6	-6
CN(C)CCCNc1nc2cc(-c3ccc(F)cc3)sc2c(=O)n1C	-9	0	·	·	-0.5	-11
COc1ccc(NC(=O)N2CCN(c3cccc(C(F)(F)F)c3)CC2)cc1	0	43	-14	-15	-0.1	-9
COc1ccccc1N(CC(=O)NCc1ccccn1)S(C)(=O)=O	0	-5	14	-5	0.3	-13
